A1 apoptosis 2 = A1 inhibitors via caspase activation, primary screen, cell-based, luminescence, HTS, two replicates. MEF A1-2A-BIM cells, caspase-Glo luminescence, 3 h; percent of clofoctol response, DMSO zero. caspase activation, % (concentration not given with the values). 24,000 tested, under 10 active. AID 2465, 2010; in the data active = caspase activation above about 5.9%; inconclusive = no clear call, values can overlap the other calls; inactive = below about 2.2%;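 also: wells of about 30 µL received 50 nL stock; the first replicate is given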
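Material: A1-2A-BIM-expressing MEF cells. Buffer or medium: RPMI-1640 plus 10% FBS. Incubation: cells settled overnight, compound exposure 3 h at 37 °C, 5% CO2. Signal: Caspase-Glo 3/7 luminescence, 1 h at room temperature.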
Numbers without * were called inactive; ? = inconclusive. The list is partial; the hit share may differ from the screen's.

SMILES	A1 apoptosis 2
Cc1noc(C)c1S(=O)(=O)N(C)C[C@H]1OCCCC[C@H](C)Oc2ccc(NC(=O)Cc3ccccc3)cc2C(=O)N([C@H](C)CO)C[C@H]1C	1.9
COCCOC(=O)N1C(=O)[C@@]2(c3cc(C#CCNC(N)=O)ccc31)[C@H](C(=O)N1CCN(c3ncccn3)CC1)[C@H]1C(=O)O[C@H](c3ccccc3)[C@H](c3ccccc3)N1[C@@H]2c1ccccc1OCCO	-0.4
C[C@@H]1CN([C@@H](C)CO)C(=O)c2cc(NS(=O)(=O)c3ccccc3)ccc2O[C@H]1CN(C)S(=O)(=O)c1cccs1	0.3
C[C@H](CO)N1C[C@H](C)[C@@H](CN(C)Cc2ccncc2)OCCCC[C@H](C)Oc2ccc(NS(C)(=O)=O)cc2C1=O	-1.3
COc1ccc(NC(=O)N(C)C[C@@H]2OCCCC[C@H](C)Oc3ccc(NC(=O)CCCN(C)C)cc3C(=O)N([C@H](C)CO)C[C@@H]2C)cc1	0.0
C[C@H](CO)N1C[C@H](C)[C@H](CN(C)Cc2ccncc2)Oc2ncc(C#Cc3ccc(F)cc3)cc2C1=O	-0.3
Cc1noc(C)c1NC(=O)Nc1ccc2c(c1)C(=O)N([C@@H](C)CO)C[C@H](C)[C@H](CN(C)S(=O)(=O)c1cccs1)OCCCC[C@H](C)O2	0.2
COc1ccc(NC(=O)Nc2ccc3c(c2)C(=O)N([C@H](C)CO)C[C@@H](C)[C@@H](CN(C)Cc2ccc(C(F)(F)F)cc2)O3)cc1	-0.9
O=C(O)CCCCCCC(=O)N/N=C/c1ccccc1O	1.1
Cc1ccc(S(=O)(=O)Nc2ccc3c(c2)C(=O)N([C@H](C)CO)C[C@H](C)[C@H](CN(C)C(=O)c2ccccc2)OCCCC[C@@H](C)O3)cc1	1.2
O=C(N/N=C/c1ccc(O)cc1O)c1ccccc1O	-11
Cc1ccc(S(=O)(=O)Nc2cccc3c2O[C@H](CN(C)CC2CC2)[C@@H](C)CN([C@H](C)CO)C3=O)cc1	-0.8
C[C@H]1CN([C@@H](C)CO)C(=O)Cc2cc(NC(=O)Nc3cccc4ccccc34)ccc2O[C@H]1CN(C)Cc1ccncc1	-0.3
Cc1noc(C)c1NC(=O)Nc1ccc2c(c1)CC(=O)N([C@H](C)CO)C[C@@H](C)[C@@H](CN(C)S(=O)(=O)c1c(C)noc1C)O2	0.3
COc1ccc(S(=O)(=O)Nc2ccc3c(c2)CC(=O)N([C@H](C)CO)C[C@H](C)[C@@H](CN(C)C(=O)Nc2ccccc2)O3)cc1	-0.2
C[C@H](CO)N1C[C@H](C)[C@@H](CN(C)Cc2ccc(Cl)c(Cl)c2)Oc2ccc(NC(=O)CCC(F)(F)F)cc2CC1=O	-0.4
C[C@@H]1CCCCO[C@H](CN(C)CC2CCCCC2)[C@@H](C)CN([C@H](C)CO)C(=O)c2cc(NC(=O)Nc3ccc(C(F)(F)F)cc3)ccc2O1	0.6
C[C@@H]1CN([C@H](C)CO)C(=O)Cc2cc(NC(=O)Nc3ccc4c(c3)OCO4)ccc2O[C@@H]1CN(C)C(=O)Nc1ccc2c(c1)OCO2	-1.1
NC(=O)NCC#Cc1ccc2c(c1)[C@]1(C(=O)N2)[C@H](c2ccccc2OCCO)N2[C@H](c3ccccc3)[C@H](c3ccccc3)OC(=O)[C@H]2[C@@H]1C(N)=O	0.1
Cc1[nH]cnc1/C=N/NC(=O)c1ccccc1O	-4.0
C[C@H](CO)N1C[C@H](C)[C@H](CN(C)C(=O)Nc2ccc3c(c2)OCO3)OCCCC[C@H](C)Oc2ccc(NC(=O)Cc3ccccc3)cc2C1=O	-1.4
COc1ccc(S(=O)(=O)Nc2ccc3c(c2)C(=O)N([C@@H](C)CO)C[C@H](C)[C@@H](CN(C)C(=O)Nc2ccc(F)cc2)OCCCC[C@@H](C)O3)cc1	?
COc1cc2c(cc1OC)CN(C(=O)[C@H]1[C@@H]3C(=O)O[C@@H](c4ccccc4)[C@@H](c4ccccc4)N3[C@@H](c3ccccc3OCCO)[C@]13C(=O)Nc1ccccc13)CC2	-0.7
C[C@H](CO)N1C[C@H](C)[C@@H](CN(C)C(=O)Nc2ccccc2)Oc2ccc(NC(=O)Nc3ccc(F)cc3)cc2C1=O	-0.6
C[C@H](CO)N1C[C@H](C)[C@H](CN(C)Cc2ccc3c(c2)OCO3)Oc2ccc(NC(=O)Nc3ccc(F)cc3)cc2CC1=O	1.3
C[C@H](CO)N1C[C@H](C)[C@@H](CN(C)CC2CC2)Oc2c(NC(=O)NC3CCCCC3)cccc2C1=O	1.5
CC(C)NC(=O)N(C)C[C@@H]1OCCCC[C@@H](C)Oc2ccc(NS(C)(=O)=O)cc2C(=O)N([C@H](C)CO)C[C@@H]1C	-0.8
Cc1noc(C)c1NC(=O)Nc1ccc2c(c1)C(=O)N([C@H](C)CO)C[C@H](C)[C@H](CN(C)Cc1ccccc1)OCCCC[C@H](C)O2	1.0
CC(C)(C)[C@H]1C=C(C(=O)Nc2ccccc2)O[C@@H](OCCCCO)C1	1.3
C[C@@H]1CN([C@H](C)CO)C(=O)c2cc(NC(=O)Nc3ccccc3)ccc2O[C@@H](C)CCCCO[C@@H]1CN(C)Cc1ccc(C(F)(F)F)cc1	-0.1
C[C@@H]1CN([C@H](C)CO)C(=O)c2cccc(NS(=O)(=O)c3cn(C)cn3)c2O[C@H]1CN(C)Cc1ccccc1	-0.3
C[C@H](CO)N1C[C@H](C)[C@@H](CN(C)Cc2ccncc2)Oc2ccc(NC(=O)CCCCCC(=O)Nc3ccccc3N)cc2CC1=O	-0.8
C[C@H](CO)N1C[C@H](C)[C@H](CN(C)S(=O)(=O)c2cccs2)Oc2ncc(C#Cc3ccccc3)cc2C1=O	1.2
Cc1noc(C)c1NC(=O)N(C)C[C@H]1Oc2c(NC(=O)c3cnccn3)cccc2C(=O)N([C@H](C)CO)C[C@@H]1C	0.0
CN1CCN(C(=O)C2=C[C@@H](c3coc4ccccc4c3=O)C[C@@H](OCc3ccc(CO)cc3)O2)CC1	-0.2
Cc1noc(C)c1S(=O)(=O)Nc1ccc2c(c1)C(=O)N([C@H](C)CO)C[C@@H](C)[C@@H](CN(C)C(=O)NC(C)C)OCCCC[C@H](C)O2	-0.6
C[C@@H]1CCCCO[C@H](CN(C)C(=O)CCC(F)(F)F)[C@H](C)CN([C@H](C)CO)C(=O)c2cc(NC(=O)c3ccccc3)ccc2O1	0.0
C[C@H](CO)N1C[C@H](C)[C@H](CN(C)C(=O)Nc2ccc(F)cc2)OCCCC[C@H](C)Oc2ccc(NC(=O)c3ccccc3)cc2C1=O	1.1
C[C@@H]1CN([C@@H](C)CO)C(=O)c2cccc(NS(=O)(=O)c3ccccc3)c2O[C@H]1CN(C)Cc1ccncc1	0.1
COc1ccc(CN(C)C[C@@H]2Oc3ccc(NC(=O)Cc4cn(C)c5ccccc45)cc3CC(=O)N([C@@H](C)CO)C[C@H]2C)cc1	-0.7
CC(C)NC(=O)N(C)C[C@H]1Oc2c(NC(=O)Nc3cccc4ccccc34)cccc2C(=O)N([C@H](C)CO)C[C@@H]1C	0.5
C=CCNC(=O)[C@H]1[C@@H]2C(=O)O[C@@H](c3ccccc3)[C@@H](c3ccccc3)N2[C@@H](c2ccc(O)cc2)[C@]12C(=O)N(C(=O)OCCOC)c1ccc(C#CC3=CCCCC3)cc12	1.4
COc1ccc(CN(C)C[C@H]2OCCCC[C@H](C)Oc3ccc(NS(=O)(=O)c4c(C)noc4C)cc3C(=O)N([C@H](C)CO)C[C@@H]2C)cc1	0.0
C[C@H]1CCCCO[C@@H](CN(C)S(=O)(=O)c2ccc(F)cc2)[C@@H](C)CN([C@@H](C)CO)C(=O)c2cc(NC(=O)NC3CCCCC3)ccc2O1	-0.6
C[C@H]1CN([C@@H](C)CO)C(=O)c2cc(NC(=O)C3CC3)ccc2O[C@@H]1CN(C)Cc1ccc2c(c1)OCO2	0.2
C[C@@H]1CN([C@@H](C)CO)C(=O)Cc2cc(NC(=O)Nc3ccc(F)cc3)ccc2O[C@H]1CN(C)Cc1ccncc1	-0.8
COc1ccc(S(=O)(=O)Nc2ccc3c(c2)C(=O)N([C@H](C)CO)C[C@H](C)[C@@H](CN(C)C(=O)NC2CCCCC2)O3)cc1	-0.7
COc1ccc(CN(C)C[C@@H]2Oc3c(NC(=O)Nc4ccc(C(F)(F)F)cc4)cccc3C(=O)N([C@H](C)CO)C[C@H]2C)cc1	-0.5
COc1ccc(CN(C)C[C@@H]2Oc3ccc(NC(=O)Nc4ccccc4)cc3CC(=O)N([C@H](C)CO)C[C@H]2C)cc1	-1.0
COc1ccc([Si](C)(C)[C@@H]2[C@@H](CCO)O[C@]3(C(=O)N(Cc4cccc(NC(C)=O)c4)c4ccccc43)[C@H]2C)cc1	-0.6

The list goes on:
SMILES	A1 apoptosis 2
C[C@H]1CN([C@@H](C)CO)C(=O)Cc2cc(NC(=O)Cn3cnnn3)ccc2O[C@H]1CN(C)CC1CC1	-0.8
COc1ccc(S(=O)(=O)Nc2ccc3c(c2)C(=O)N([C@@H](C)CO)C[C@H](C)[C@@H](CN(C)C(=O)Nc2ccc(F)cc2)OCCCC[C@H](C)O3)cc1	0.5
COc1ccc(NC(=O)N(C)C[C@@H]2OCCCC[C@H](C)Oc3ccc(NC(=O)CCC(F)(F)F)cc3C(=O)N([C@@H](C)CO)C[C@@H]2C)cc1	1.4
C[C@H]1CN([C@@H](C)CO)C(=O)c2cc(NS(=O)(=O)c3ccc(F)cc3)ccc2O[C@H]1CN(C)S(=O)(=O)c1cn(C)cn1	-0.6
C[C@@H]1CN([C@@H](C)CO)C(=O)c2cc(NC(=O)CCC(F)(F)F)ccc2O[C@H]1CN(C)S(=O)(=O)c1cccs1	-0.1
C[C@H](CO)N1C[C@H](C)[C@H](CN(C)C(=O)Nc2ccccc2)OCCCC[C@H](C)Oc2ccc(NC(=O)c3ccccc3)cc2C1=O	0.8
CC(C)NC(=O)N(C)C[C@@H]1Oc2c(NC(=O)Nc3ccc(C(F)(F)F)cc3)cccc2C(=O)N([C@@H](C)CO)C[C@@H]1C	-1.1
C[C@@H]1CN([C@@H](C)CO)C(=O)c2cc(NS(C)(=O)=O)ccc2O[C@@H](C)CCCCO[C@H]1CN(C)C	1.1
C[C@@H]1CN([C@@H](C)CO)C(=O)Cc2cc(NC(=O)Cc3ccccc3)ccc2O[C@H]1CN(C)S(=O)(=O)c1ccc(Cl)cc1	0.1
COCCOC(=O)N1C(=O)[C@@]2(c3cc(C#CCCO)ccc31)[C@H](c1ccccc1OCCO)N1[C@H](c3ccccc3)[C@H](c3ccccc3)OC(=O)[C@H]1[C@@H]2C(=O)NC[C@H](O)c1ccccc1	2.0
C[C@@H]1CN([C@H](C)CO)C(=O)c2cccc(NC(=O)Nc3ccc(F)cc3)c2O[C@@H]1CN(C)C	2.6
C[C@@H]1CN([C@H](C)CO)C(=O)c2cccc(NC(=O)c3nc4ccccc4s3)c2O[C@@H]1CN(C)C	1.7
C[C@@H]1CN([C@H](C)CO)C(=O)c2cc(NC(=O)c3ccccc3)ccc2O[C@@H](C)CCCCO[C@@H]1CN(C)S(=O)(=O)c1ccc(Cl)cc1	0.4
O=C(N/N=C/c1ccc(O)c(F)c1)c1ccccc1O	-10
COCC1=C([C@H](O)CCc2ccccc2)[C@H](CO)[C@@H]2C(=O)N(Cc3ccccc3)C(=O)[C@@H]2C1	-0.8
COc1ccc(S(=O)(=O)Nc2ccc3c(c2)C(=O)N([C@@H](C)CO)C[C@H](C)[C@H](CN(C)CC2CCCCC2)OCCCC[C@H](C)O3)cc1	0.0
COc1ccc(CN(C)C[C@@H]2Oc3ccc(NC(=O)Nc4ccc(OC)cc4)cc3CC(=O)N([C@H](C)CO)C[C@@H]2C)cc1	0.1
C[C@H](CO)N1C[C@H](C)[C@H](CN(C)CC2CC2)Oc2c(NC(=O)c3cnccn3)cccc2C1=O	0.5
C[C@@H]1CCCCO[C@H](CN(C)C(=O)c2ccncc2)[C@@H](C)CN([C@@H](C)CO)C(=O)c2cc(NC(=O)c3ccncc3)ccc2O1	-1.4
COC(=O)CCCCCCC(=O)N/N=C/c1cccc(C(=O)O)c1	1.7
